2A firefly – lowers the firefly signal of an FMDV 2A StopGo reporter; Potency, µM (highest dose often 57.5 µM), inactives show at the top dose signal change, negative = less light; HEK cells with a luciferase reporter of 2A StopGo recoding; actives 0.23% (n = 120,000); active = well fitted falling curve with a large enough effect; inconclusive = small, poorly fitted or top-dose-only effect; inactive = no such curve, though single readings can be large or run the other way; also: nearly all actives have a fitted effect of over 60% in size; overnight with compound
2A Renilla – FMDV 2A StopGo reporter, Renilla signal; HEK cells with a luciferase reporter of 2A StopGo recoding; Potency, µM (doses to about 57.5 µM), for the others: at the highest dose signal change, negative = less light; actives 0.32% (n = 120,000); AID 1745857; active means well fitted falling curve with a large enough effect; inconclusive means small, poorly fitted or top-dose-only effect; inactive means no such curve, though single readings can be large or run the other way; also: nearly all actives have a fitted effect of over 55% in size; overnight with compound
The depositor's hits bear a star; ? = inconclusive; & = joins results of further samples; [ ] = another dose, or the depositor's remark. % is scaled to controls: 0 for no effect and ±100 for the full control effect; potency is read from the fitted curve at half-maximal effect. A portion of the library, so the mix of outcomes need not match the whole.

SMILES	2A firefly	2A Renilla
CC(C)(Cc1cc(=O)c2ccccc2[nH]1)C1CCCCC1	?	?
O=C(Cn1ncc2c3ccccc3n(Cc3ccccc3)c2c1=O)NCc1ccccn1	-13.3%	-8.6%
Cc1ccccc1C(=O)Nc1cccc(CCC(=O)N(C)C)c1	27.7%	15.2%
CCOc1ccc(-c2nnc(SCC(=O)Nc3ccc(C)cc3Cl)o2)cc1	?	0.1%
O=C(CNc1ccc(OC(F)(F)F)cc1)N1CCNC1=O	109.6%[activator]	11.4%
COc1ccc(-c2noc(-c3ccc(N4CCN(c5ccccc5)CC4)c([N+](=O)[O-])c3)n2)cc1OC	-15.1%	3.3%
Cn1cnc(S(=O)(=O)N2CCC(C(=O)Nc3ccc(C#N)cc3)CC2)c1	2.4%	12.7%
Cc1cccc2c(=O)cc(CSc3ccccc3NC(=O)c3cccc(Cl)c3)[nH]c12	-12.7%	71.2%[activator]
O=C(NCC(c1ccco1)S(=O)(=O)c1cccs1)c1ccc(C(F)(F)F)cc1 (stereo not given)	27.6%	-0.8%
CCN(CC(C)C#N)C(=O)C1CCN(C(=O)c2ccc(Cl)cc2)CC1 (stereo not given)	-1.8%	-3.3%
Cc1ccccc1-c1noc(COc2ccc3c(C)cc(=O)oc3c2)n1	27.2%	-6.0%
Cc1cccc(C(=O)Nc2ccc3oc(=O)ccc3c2)c1	0.0%	-1.2%
COc1ccc(-c2noc(-c3ccc(NC4CCCC4)c([N+](=O)[O-])c3)n2)cc1OC	-3.9%	-1.6%
CCOC(=O)c1ccc(NC(=O)C2=C(C)Nc3nc(SCc4ccc(Cl)cc4)nn3C2c2ccc(C)cc2)cc1 (stereo not given)	-15.8%	-17.1%
CCCNc1c(NS(=O)(=O)c2ccc(OC)c(OC)c2)c(=O)oc2ccccc12	12.3%	0.0%
Cc1ccc2nc(CSc3nnc(N4CCOCC4)n3-c3cccc(F)c3)cn2c1	1.0%	-6.4%
CC(O)CNc1nc2c(c(=O)n(Cc3cccc(Cl)c3)c(=O)n2C)n1C (stereo not given)	-9.2%	1.9%
Cc1ccc(Cn2nnc3c(=O)n(Cc4nc(-c5ccc(OC(C)C)cc5)no4)cnc32)cc1	6.9%	-5.2%
Cc1ccc2ncc3c(-c4ccc(F)cc4)nn(-c4cccc(F)c4)c3c2c1	-11.9%	-15.0%
c1cc(CN2CCCCC2)cc(OCCCNc2nc3ccccc3s2)c1	-3.9%	-9.9%
N#Cc1ccc(CN2C(=O)c3ccccc3Sc3ccc(C(=O)OCc4ccco4)cc32)cc1	-1.6%	5.2%
COc1cc(NC(=O)CC2C(=O)N(c3ccccc3)C(=O)N2Cc2ccc(F)cc2)cc(OC)c1 (stereo not given)	-13.8%	-1.8%
Nc1nc2c(s1)C(c1cccc(OCc3cccc(F)c3)c1)CC(=O)N2 (stereo not given)	-0.9%	-9.2%
COc1ccc(-c2cc(C(F)(F)F)nc(S(=O)(=O)CCC(=O)NCc3ccccc3)n2)cc1	17.2%	5.3%
COCC(C)NC(=O)CSc1cc(-c2ccccc2)c2ccc(OC)cc2n1 (stereo not given)	18.0%	11.1%

New compounds follow
SMILES	2A firefly	2A Renilla
Cc1cc(N2CCN(C)CC2)nc2ccc(NC(=O)Nc3ccccc3)cc12	162.6%[activator]	0.0%
Cc1ccc2c(=O)cc(C(=O)Nc3cccc(Cl)c3C)oc2c1C	-5.4%&-9.8%	-15.7%&-5.2%
COc1ccc(CCn2c(=O)[nH]c3cc(C(=O)N4CCN(c5ccccc5)CC4)ccc3c2=O)cc1OC	1.9%	12.2%
COc1cc(NC(=O)c2cc(C)nc3c2c(C)nn3-c2ccccc2Cl)cc(OC)c1	0.0%	-4.4%
COC(=O)Nc1ccc(CNC(=O)c2ccccc2C(=O)c2ccccc2)cc1	-17.5%	83.9%[activator]
O=C(COc1ccc(Cl)cc1)NCC(c1ccco1)S(=O)(=O)c1ccc(F)cc1 (stereo not given)	-23.4%	3.3%
O/N=C/c1cccc(Oc2ccccc2)c1	92.9%[activator]	4.5%
CCn1nc(-c2ccccc2)c(-c2ccccc2)c(C(=O)Nc2nc(C)c(C(=O)N(C)C)s2)c1=O	-20.2%	6.6%
COc1cccc(Oc2ccc(CNc3ncccn3)cn2)c1	29.7%	-9.8%
COc1cccc(NC(=O)CCNS(=O)(=O)c2ccc3c(c2)CCCC(=O)N3)c1	-19.0%	1.5%
Cn1nc(C(=O)Nc2ccc(Oc3ccccc3)cc2)c2ccccc2c1=O	72.0%[activator]	8.9%
CC(C)(C)c1ccc(/C=N/O)cc1	0.0%	4.3%
COc1ccc2c(c1)C(NC(C)=O)C(=O)N2CCOc1ccccc1 (stereo not given)	0.0%	5.4%
CCN1C(=O)C(Cc2ccccc2OC)c2ccccc21 (stereo not given)	11.6%	20.4%
Cc1cc(C)c2c(CN3CCN(c4ccccn4)CC3)cc(=O)oc2c1	-6.6%	-3.3%
CCc1ccccc1NC(=O)CN1C(=O)c2cccnc2Oc2ccc(Cl)cc21	3.0%	-10.4%
Cc1c(-c2nsc(NC(=O)c3cccc(Cl)c3)n2)nnn1-c1cc(F)ccc1F	176.1%[activator]	21.4%
CCc1ccc(OCC(=O)N(CC#N)C2CC2)cc1	38.7%[activator]	18.7%
CCC(C)(CC(=O)O)CC(=O)O	8.5%	9.1%
Cc1cc(C)c(OCC(=O)N(Cc2ccco2)Cc2ccco2)c(C)c1	-23.9%	60.9%[activator]
CC1CCCCN1S(=O)(=O)c1cc2c3c(c1)CC(=O)N3CCC2 (stereo not given)	-3.0%	6.0%
COc1cc(OC)c(NC(=O)Nc2nnc(N(C)C3CCCCC3)s2)cc1Cl	13.2%&-9.7%	1.9%&-13.6%
CCc1ccc(NC(=O)CC2C(=O)OCCN2CC)cc1 (stereo not given)	-30.0%	-21.4%
COC(=O)c1c(N)c(-c2nc3ccccc3s2)nn1-c1ccc(Cl)cc1	17.7%	-2.7%
C=Cc1ccc(CN2C(=O)c3ccccc3Sc3ccc(C(=O)OCc4ccco4)cc32)cc1	9.4%	22.8%

Filtered by structure: the compounds so far containing a CF3 group.
SMILES	2A firefly	2A Renilla
O=C(CNc1ccc(OC(F)(F)F)cc1)N1CCNC1=O	109.6%[activator]	11.4%
O=C(NCC(c1ccco1)S(=O)(=O)c1cccs1)c1ccc(C(F)(F)F)cc1 (stereo not given)	27.6%	-0.8%
COc1ccc(-c2cc(C(F)(F)F)nc(S(=O)(=O)CCC(=O)NCc3ccccc3)n2)cc1	17.2%	5.3%

(cont.)
SMILES	2A firefly	2A Renilla
CC(=O)/C=C(\N)C(Cl)(Cl)Cl	3.3%	-3.6%
CCc1ccccc1-n1cnc2cc(C(=O)NC3CCCCCC3)ccc21	-4.5%	74.7%[activator]
O=S(=O)(NCc1ccc(Cn2cncn2)cc1)c1ccccc1F	12.1%	-6.0%
COc1cccc(CNC(=O)Nc2cn(CC(C)C)c(=O)c3ccccc23)c1	-7.1%	-2.4%
CC(C)Cc1ccc(S(=O)(=O)Nc2ccc3[nH]c(=O)[nH]c3c2)cc1	?	?
C=CCNC(=S)NNC(=O)c1ccc(CSc2nc(C)cc(C)n2)cc1	-22.4%	54.9%[activator]
CCCNC(=O)C(C)NC(=O)c1cc(=O)[nH]c2ccccc12 (stereo not given)	6.1%	3.2%
CCOC(=O)c1cc(NCc2c(Cl)cccc2Cl)ccc1N1CCOCC1	19.6%	53.0%[activator]
CC(=O)NCc1ccc(C(=O)CSc2nnc(C3CC3)n2Cc2ccccc2)cc1	22.8%	18.1%
CCN1CCN(CCOc2ccc3c(=O)c(-c4ccc(Br)cc4)c(C)oc3c2)CC1	-22.6%	-24.1%
Cc1ccc(-c2nn3c(=O)cc(CN4CCN(C(=O)COc5ccc(C)c(C)c5)CC4)nc3s2)cc1	-13.8%	-13.1%
CCCOc1ccc(C2C(=O)N(C3CCC(C)CC3)CC(=O)N2CCc2ccccc2)cc1OC (stereo not given)	-23.1%	-18.3%
O=C(NCC1CN(c2ccc(N3CCOCC3=O)cc2)C(=O)O1)c1ccc(Cl)s1 (stereo not given)	-7.5%[11.5 µM]	10.1%
CCOC(=O)Cn1c(=O)c2c3c(sc2n(Cc2ccc(F)cc2)c1=O)CCCC3	-18.2%	-7.8%
Cc1cccc(NC(=O)c2cc(S(=O)(=O)N3CCC4(CC3)OCCO4)ccc2F)c1	3.4%	18.5%
CCCCCCCNC(=O)CCC(=O)NCCCOC(C)C	-1.8%	0.8%
CCN(CC)C(=O)c1cccc(NC(=O)c2cccc3cccnc23)c1	0.0%	33.0%[activator]
CN(C)c1ccc(NC(=O)CSc2nc(-c3ccco3)cc(C(F)(F)F)n2)cc1	47.5%[activator]	38.6%[activator]
O=S(=O)(c1ccc(OC(F)(F)F)cc1)N1CCN(Cc2ncc(-c3ccc(F)cc3)o2)CC1	13.7%	?
O=C(Cc1ccsc1)Nc1cccc(N2CCCCC2=O)c1	3.5%	36.3%[activator]
CC(=O)Nc1c(C(=O)Nc2cccc(C)c2)nnn1-c1ccc(C)cc1	220.3%[activator]	14.5%
Clc1ccc(OCc2nc(-c3ccc(-n4cccc4)cc3)no2)cc1	4.9%	-9.1%
CCc1ccc(CNC(=O)Cn2nc(C)c3c(C)n(-c4ccc(C)cc4)nc3c2=O)cc1	-16.2%	-7.0%
Cn1c(=O)c2c(nc(CN3CCC(Cc4ccccc4)CC3)n2CC(N)=O)n(C)c1=O	3.9%	1.0%
Oc1ccc(Cl)cc1C=NCc1ccc(Cl)cc1	0.2%	9.4%

Continuation:
SMILES	2A firefly	2A Renilla
CCN(CC(=O)NC(C)(C)C)Cc1nc(-c2ccccc2)oc1C	0.8%	19.5%
CCCCCn1c(NCc2ccc(OC)cc2)nc2ccccc21	3.9%	-8.7%
Cc1ccc(-c2nc3c(c(SCC(=O)N(C)c4ccccc4)n2)Cc2c(CO)cnc(C)c2O3)cc1	-7.3%	0.4%
O=C(CSc1ncnc2ccccc12)N(C1CCCCC1)C1CCS(=O)(=O)C1 (stereo not given)	8.5%	-21.1%
CSc1ccc(/C=[N+](\[O-])C2N(C)C(=S)SC2(C)C)cc1 (stereo not given)	-2.4%	5.1%
COc1ccccc1C(C)NC(=O)Cc1n[nH]c(=O)c2ccccc12 (stereo not given)	10.1%	3.6%
O=C(COc1ccc(C(=O)c2ccccc2)cc1)OCCOc1cccc(Cl)c1	7.1%	20.0%
COc1ccc(-c2cc(C(F)(F)F)nc(SCC(=O)NCCc3ccccc3)n2)cc1	113.5%[activator]	4.1%
COCCn1c(=NC(=O)c2ccc3c(c2)OCCO3)sc2cc(NC(C)=O)ccc21	24.0%	-10.9%
CC(C)(C)OC(=O)N1CCC(c2c(C(=O)Nc3ccc4c(c3)OCCO4)cnn2-c2ccc(Cl)cc2)CC1	4.4%	-20.3%
COc1cccc(C(=O)Nc2ccccc2-c2nnc(-c3ccc(C(C)(C)C)cc3)o2)c1	1.8%	-13.4%
Nc1nccnc1C(=O)NCc1ccc(OCc2cccc(F)c2)cc1	?	11.2µM*
O=C1CC(C(=O)Nc2ccc(F)c(F)c2)n2nc(-c3ccccc3)cc2N1 (stereo not given)	132.7%[activator]	20.4%
CCCC(=O)N1N=C(c2ccc3c(c2)OCO3)CC1c1ccc2nccnc2c1 (stereo not given)	24.3%	-3.6%
CCn1c2ccccc2c2cc(NC(=O)COc3ccc(C)cc3C)ccc21	4.1%	3.4%
N#CC1=C(N)Oc2c(c(=O)[nH]c3ccccc23)C1c1ccc(F)cc1 (stereo not given)	7.5%	6.6%
Cc1cccc(-c2noc(CNC(=O)CN(C)S(=O)(=O)c3ccc4ccccc4c3)n2)c1	-5.7%	4.9%
COc1ccccc1-c1noc(-c2ccc(S(=O)(=O)NC3CC3)o2)n1	80.7%[activator]	100.8%[activator]
Nc1cccc(OCCOc2ccccc2)c1	74.1%[activator]	5.9%
CC(C)CNC(=O)C1CCN(c2ncnc3sc4c(c23)CCCC4)CC1	?	-29.5%
O=C1CSc2ccc(C(=O)OCc3ccccc3[N+](=O)[O-])cc2N1	24.5%	2.1%
CCCC12CN3CC(C)(CN(C1)C3c1ccc(CC)cc1)C2=O (stereo not given)	-14.1%	6.4%
COc1ccc(-c2nc(CNS(=O)(=O)c3ccc(F)cc3)cs2)cc1	-4.8%	-5.0%
Cc1ccc2c(c1)/C(=C/c1ccncc1)c1cc3ccccc3nc1-2	157.8%[activator]	7.2%
Cc1ccc2c(C)c(CCC(=O)Nc3ccc(C(N)=O)cc3)c(=O)oc2c1	-5.5%	-1.8%

Random excerpt: 2 compounds from above.
SMILES	2A firefly	2A Renilla
COc1ccc(-c2cc(C(F)(F)F)nc(SCC(=O)NCCc3ccccc3)n2)cc1	113.5%[activator]	4.1%
COc1ccccc1C(C)NC(=O)Cc1n[nH]c(=O)c2ccccc12 (stereo not given)	10.1%	3.6%

(listing goes on)
SMILES	2A firefly	2A Renilla
CCOc1ccc(C2C(=O)N(C3CCCCCC3)CC(=O)N2CCc2ccc(Cl)cc2)cc1OC (stereo not given)	-19.7%	8.9%
CC1CN(C(=O)Nc2ccc(C(=O)NCCc3ccccc3)cc2)c2ccccc2S1 (stereo not given)	122.8%[activator]	10.6%
O=C(CCc1cccnc1)Nc1cnc2ccccc2c1	80.5%[activator]	10.0%
Nc1nccnc1C(=O)Nc1cccc(Cn2ccnc2)c1	55.3%[activator]	9.6%
Fc1ccc(-n2ncc3c(NCCCN4CCOCC4)ncnc32)cc1	134.4%[activator]	-7.6%
COc1ccc(C(=O)NCC(=O)NCc2ccc3cc(OC)ccc3c2)cc1	-8.2%	-0.5%
O=C(Nc1ccc2c(c1)OCO2)c1cnn2c(C(F)(F)F)cc(-c3ccc(F)cc3)nc12	13.6%	-5.1%
O=C1C(=O)N(CCN2CCOCC2)C(c2ccc(F)cc2)/C1=C(\O)c1ccc(Br)cc1 (stereo not given)	?	?
CN1C(=O)C(NC(=O)C(=O)NCCc2c[nH]c3ccc(Cl)cc23)c2ccccc21 (stereo not given)	1.6%	-2.9%
